Screens deposited in PubChem by Johns Hopkins Ion Channel Center.
KCNQ2 enhance: enhances the rat KCNQ2 potassium channel. B-score at 10 µM. actives 0.54% (n = 310,000). CHO-K1 KCNQ2, FluxOR thallium flux fluorescence; hits give high values. O88943;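 active means fluorescence ratio B-score at least 3 SD of library B-scores, with initial fluorescence B-score within 3 SD, cut at about 5.3 in these data; same plate scores as AID 2156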;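 further: B-score of peak minus minimum over baseline fluorescence ratio after K+ and Tl+ stimulus; positive B-score means potentiation of KCNQ2 with more thallium influx and brighter signal; only the inactives scoring about 0 or higher are listed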
Target sequence (O88943 whole entry, looked up): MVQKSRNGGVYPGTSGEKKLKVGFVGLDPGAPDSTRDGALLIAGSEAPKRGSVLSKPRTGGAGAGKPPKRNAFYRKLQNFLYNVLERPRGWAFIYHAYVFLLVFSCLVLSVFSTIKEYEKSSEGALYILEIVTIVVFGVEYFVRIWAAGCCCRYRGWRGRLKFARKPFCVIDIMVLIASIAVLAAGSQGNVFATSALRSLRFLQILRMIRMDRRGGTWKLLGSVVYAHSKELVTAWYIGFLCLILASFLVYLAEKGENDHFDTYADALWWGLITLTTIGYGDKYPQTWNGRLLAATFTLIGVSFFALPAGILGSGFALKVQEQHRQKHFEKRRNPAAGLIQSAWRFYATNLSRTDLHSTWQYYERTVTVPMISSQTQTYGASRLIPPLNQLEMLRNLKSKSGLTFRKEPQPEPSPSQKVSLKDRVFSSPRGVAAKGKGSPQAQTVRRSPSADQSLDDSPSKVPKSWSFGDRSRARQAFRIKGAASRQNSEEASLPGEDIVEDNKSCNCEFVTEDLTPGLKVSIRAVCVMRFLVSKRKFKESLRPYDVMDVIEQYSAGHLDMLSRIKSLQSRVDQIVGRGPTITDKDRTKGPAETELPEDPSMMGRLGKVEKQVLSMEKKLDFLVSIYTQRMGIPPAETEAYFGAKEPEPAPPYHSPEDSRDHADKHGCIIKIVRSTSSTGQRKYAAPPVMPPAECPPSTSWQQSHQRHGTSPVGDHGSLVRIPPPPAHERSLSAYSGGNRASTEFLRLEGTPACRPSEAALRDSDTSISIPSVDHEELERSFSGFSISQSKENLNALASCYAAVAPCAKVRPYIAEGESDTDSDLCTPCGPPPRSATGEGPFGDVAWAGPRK
KCNQ2 enhance baseline: further read-out of KCNQ2 enhance, marked with its call; B-score; compound at 10 µM; measured here: initial fluorescence intensity artifact check;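 brightness before thallium and not channel activity; 0 = typical well and far values either way flag optical interference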
The depositor's hits bear a star.

SMILES	KCNQ2 enhance	KCNQ2 enhance baseline
CC(C)(C)NC(=O)NC(=O)Cn1cc(C(F)(F)F)ccc1=O	0.34	0.14
COc1ccccc1-c1coc2c(CN3CCCC(C)C3)c(O)ccc2c1=O (stereo not given)	0.38	0.11
COc1ccc2ccc(OC)c(/C=N/n3cnnc3)c2c1	0.07	0.02
O=C(NCCO)c1ccc(-c2nnc(N3CCOCC3)c3ccccc23)cc1	0.8	-0.1
COc1cccc(C(=O)NCCNC(=O)c2ccco2)c1	0.43	1.2
Cc1ccccc1-n1c(=O)cc(N2CC(C)OC(C)C2)[nH]c1=O (stereo not given)	0.44	1.1
CNCc1cn2cc(Cl)ccc2n1	1	-1.1
COCCN1CCN(C(=O)c2cc(COc3ccc(Cl)cc3OC)on2)CC1	0.05	-1.8
CCC(Sc1nc2ccccc2c(=O)n1CC1CCCO1)C(=O)NCc1cccnc1 (stereo not given)	0.14	-0.83
CSc1cccc(NS(=O)(=O)c2cccc3nsnc23)c1	0.54	-0.55
O=C(Cc1ccccc1)Nc1ccc(F)cc1	0.86	0.43
O=C(Nc1cccc(-n2cnnn2)c1)c1cc(Cl)ccc1Cl	0.66	0.02
COc1ccc(-c2csc3ncnc(N4CCN(c5ccc(OC)cc5)CC4)c23)cc1	0.41	-1.2
[O-][n+]1onc2c1CCC1N(O)C(c3ccccc3)CC21O (stereo not given)	0.09	0.22
CC(C)CNC(=O)c1cccc(NC(=O)c2ccco2)c1	2.3	-0.45
O=C1CNC(=S)N1Cc1cccc(Cl)c1	0.18	-1.7
N#CCC(=O)N/N=C/c1ccc(OCC(=O)Nc2ccc(F)cc2)cc1	0.74	0.25
COc1ccc(C(N)=O)cc1NC(=O)c1cccc(F)c1	0.07	1.1
COc1ccc(CCNC(=O)CSc2nnc3ccc(-c4ccccn4)nn23)cc1	0.37	-0.9
CCc1cc2c(=O)n(CCC(C)C)c(=S)[nH]c2s1	17*	2*
COCCOC(=O)C(CC(=O)O)NCc1ccco1 (stereo not given)	0.6	-0.8
CC(C)c1[nH]nc2c1C(C(C)C)C(C#N)=C(N)O2 (stereo not given)	1.9	2.9
CCN(C(=O)CSc1nnc(COc2cccc(C)c2)o1)c1nc(C)cs1	0.5	-0.33
COc1cccc(CNC(=O)Cc2ccc(OC)c(S(=O)(=O)N3CCOCC3)c2)c1	1.1	-3.8

Copied from the list.
[O-][n+]1onc2c1CCC1N(O)C(c3ccccc3)CC21O (stereo not given) in KCNQ2 enhance shows 0.09
O=C1CNC(=S)N1Cc1cccc(Cl)c1 in KCNQ2 enhance baseline shows -1.7
CCN(C(=O)CSc1nnc(COc2cccc(C)c2)o1)c1nc(C)cs1 in KCNQ2 enhance shows 0.5
CCc1cc2c(=O)n(CCC(C)C)c(=S)[nH]c2s1 in KCNQ2 enhance baseline shows 2*
COc1ccc(CCNC(=O)CSc2nnc3ccc(-c4ccccn4)nn23)cc1 in KCNQ2 enhance baseline shows -0.9

In the list so far, 3 contain two or more sulfur atoms.
SMILES	KCNQ2 enhance	KCNQ2 enhance baseline
CSc1cccc(NS(=O)(=O)c2cccc3nsnc23)c1	0.54	-0.55
CCc1cc2c(=O)n(CCC(C)C)c(=S)[nH]c2s1	17*	2*
CCN(C(=O)CSc1nnc(COc2cccc(C)c2)o1)c1nc(C)cs1	0.5	-0.33

Next records:
SMILES	KCNQ2 enhance	KCNQ2 enhance baseline
O=C(Cn1cnc2ccccc2c1=O)Nc1ccccc1N1CCOCC1	0.03	0.41
Cc1cc(C)cc(N(CC(=O)NCC2CCCO2)C(=O)CCC(=O)Nc2cc(C)on2)c1 (stereo not given)	2.1	0.07
Cc1ccc(N(CC(=O)NCC2CCCO2)C(=O)Cn2nnc(-c3cccs3)n2)cc1 (stereo not given)	0.11	0
CCOC(=O)Cc1cc(=O)n2[nH]c(-c3ccc(Cl)cc3)cc2n1	0.55	-0.87
CC1C(=O)N2CCCc3cc(S(=O)(=O)N4CCCCC4)cc1c32 (stereo not given)	0.88	2.4
O=C(c1n[nH]c(=O)c2ccccc12)N1CCN(c2ccccc2Cl)CC1	1.1	-0.84
Cc1ccc(-c2nnc(SCC(=O)NC3CC3)o2)cc1	1	3
Cc1ccc(OCc2cccc(S(=O)(=O)N(C)C)c2)c([N+](=O)[O-])n1	1.6	0.61
COc1ccc(/C=N/n2nnnc2N)cc1OC	1.2	1.1
Cc1nc(Nc2ccc(S(N)(=O)=O)cc2)sc1-c1ccccc1	3.8	-1.9
CCOc1ccc(CC2S/C(=N/c3ccccn3)NC2=O)cc1 (stereo not given)	1.4	-0.6
Cc1ccc(N(CC(=O)NC(C)C)C(=O)CCC(=O)Nc2nccs2)c(C)c1	0.27	0.22
CC(C)(C)c1cc(OS(C)(=O)=O)ccc1O	0.09	-1.1
O=C(CCC(=O)N1CCOCC1)Nc1ccc(Cl)c(Cl)c1	0.83	-0.1
O=C(Nc1nnc(COc2ccc(Br)cc2)s1)c1ccco1	0.83	2.8
CC(NC(=O)/C=C/c1ccccc1)c1ccccc1 (stereo not given)	17*	-0.28*
CSc1nccc(N2CCN(c3ccc(F)cc3)CC2)n1	0.25	-0.84
Cc1ccc(NC(=O)Nc2ccccc2)c(Br)c1	4.5	-0.72
C=CCOC(=O)C(=O)/C=C/c1csc2ccccc12	0.02	-0.45
O=C(NCc1cccnc1)c1cc(Sc2ccccc2Cl)nc2ccccc12	0.5	0.02
COc1ccc(-c2nnn(CC(=O)N(C3CCCC3)C(C)C(=O)NC3CCCC3)n2)cc1OC (stereo not given)	0.48	-0.69
Cc1cc(C(=O)CSC(C)c2nc3ccccc3c(=O)[nH]2)c(C)n1C (stereo not given)	1.1	0.44
O=C(CCCC1=NS(=O)(=O)c2ccccc2N1)Nc1ccccc1	0.4	2
CC(=O)NCCOc1nc(N2CCCCC2)nc(N2CCCCC2)n1	0.54	-0.72
CC1CCCCN1C(=O)CCC(=O)Nc1nnc(C(F)(F)F)s1 (stereo not given)	0.63	0.11
CCSC1=C(C#N)C(c2cccs2)C(C(=O)OC)=C(C)N1 (stereo not given)	1.4	0.55
CCC(Sc1nc2n[nH]c(C)c2c(=N)n1-c1cccc(Cl)c1)C(=O)NCCOC (stereo not given)	2.1	-1.6
O=C(Nc1ccc(S(=O)(=O)N2CCCC2)cc1)c1ccc(CN2CCOCC2)cc1	1.9	-0.01
COC(=O)COc1ccc(S(=O)(=O)NCCC2=CCCCC2)cc1	0.32	1.4
CN(CC(=O)OCC(=O)NCc1ccccc1)S(=O)(=O)c1ccc(Cl)cc1	1.1	-0.27
Cc1cc(C)nc(NC(=S)Nc2ccccc2)n1	0.41	-0.37
CC(C)Oc1ccc(S(=O)(=O)N2CCCCC2)cc1NC(=O)C1=COCCO1	0.12	0.89
S=C(Nc1cccnc1)NC1CCCCCCC1	2.1	-0.84
COc1ccc(OC)c(S(=O)(=O)N2CCN(CC(O)COc3ccc(C#N)cc3)CC2)c1 (stereo not given)	0.08	-4
CC(C)CNC(=O)COc1ncnc2sccc12	0.05	0.08
CCN1CCN(C(=O)Cn2ncc3c([nH]c4ccccc43)c2=O)CC1	0.72	0.08
CCOc1ccccc1NC(=O)CCCc1nc2ccccc2c(=O)[nH]1	0.83	-0.03
Cc1ccc(CSc2nnc3c(n2)OC2(Nc4ccccc4-3)C(=O)Nc3ccc(F)cc32)cc1 (stereo not given)	2.7	-0.84
COC(=O)c1ccc(NC(=O)CSc2nnc(-c3ccncc3)n2N)cc1	0.71	0.87
Cn1c(=O)c2ncn(CC(=O)NCCOc3ccccc3)c2n(C)c1=O	1.5	0.07
COc1ccc2c(c1)OC(O)(C(F)(F)C(F)F)CC2=O (stereo not given)	3.3	2.2
Cc1cccc(N/C(=N/S(=O)(=O)c2ccccc2)c2ccccc2)n1	0.71	0.02
Cc1cc2ccccc2nc1SCC(=O)Nc1nc(-c2ccccc2)cs1	0.03	-1
COc1ccc(CC(=O)OCC(=O)NC(=O)NC(C)C)cc1	0.03	0.16
O=S(=O)(c1ccc(N2CCOCC2)nc1)N1CCOCC1	0.51	-0.23
CC1CCCCN1C(=O)c1cc(F)c(F)cc1Cl (stereo not given)	1.2	0.88
CC1=C(C(=O)OC(C)(C)C)C(c2cccs2)NC(=O)N1 (stereo not given)	0.59	0.44
COc1ccc(OC)c(S(=O)(=O)NCC(c2ccc3c(c2)OCO3)N2CCOCC2)c1 (stereo not given)	0.08	1.4
CCC(=O)Nc1nnc(Cc2ccccc2)s1	0.02	1
COc1ccc(OC)c(CCNC(=O)c2cccc(NC(=O)C3=C(C)OCCS3)c2)c1	1.3	0.16
COc1ccc(Cc2nnc(NC(=O)c3cccs3)s2)cc1OC	0.03	0.58
CCc1ccc(/C=N/NC(=O)c2ccccn2)cc1	1.7	0.89
Cc1ccc(C)c(CSc2nnc(CCN)o2)c1	0.89	-0.19
COc1ccc(/C=C(/NC(=O)c2ccccc2Cl)C(=O)O)cc1	0.24	0.14
CS(=O)(=O)c1[nH]nc(-c2ccccc2)c1C#N	0.54	0.81
Cc1cccc(CC(=O)NC2CCS(=O)(=O)C2)c1 (stereo not given)	0.36	-2.8
COc1ccc(CCNC(=O)c2c(N)no[n+]2[O-])cc1OC	0.48	0.15
Cc1ccc2occ(/C=N/O)c(=O)c2c1	0.09	-0.62
COc1ccc(CC(=O)O/N=C(\N)c2ccc(C)cc2)cc1	0.34	0.66
CCCCC(=O)Nc1cc(OC)c(NC(=O)C2CCCCC2)cc1OC	0.02	-0.02
(next part)
SMILES	KCNQ2 enhance	KCNQ2 enhance baseline
C=CCn1c(N)c(C(=O)Nc2ccccc2)c2nc3ccccc3nc21	0.47	0.38
COC(=O)c1c(NC(=O)c2ccco2)sc2c1CCN(C(C)=O)C2	1.6	1.6
Cc1[nH][nH]c(=O)c1N=Nc1ccc(Cl)cc1	0.07	0.88
CC(=O)c1cccc(OCCCOc2cccc3cccnc23)c1	0.79	-0.76
Cc1ccc(Nc2cc(C)nc3c(C)ccc([N+](=O)[O-])c23)cc1	0.45	-0.02
O=C(c1ccccc1F)N(Cc1cccnc1)Cc1cc2cc3c(cc2[nH]c1=O)OCCO3	0.86	-0.62
Cc1cc(C(=O)Nc2cccc(C(=O)O)c2)c(C)o1	0.66	0.89
C/C(=N/Nc1ccc(Cl)cc1)c1cnnc(-c2ccccc2)n1	1.8	-0.76
CC1=C(C(=O)NCc2ccco2)C2(CCC(C)CC2)OC1=O (stereo not given)	0.4	0.1
CCN(CC)c1ccc(NC(=O)CSc2nc(C3CC3)nc3ccccc23)cc1C	3.8	1.3
CCOC(=O)c1c(S(=O)(=O)N2CCc3ccccc32)c(C)n(C)c1C	1.4	-0.24
COc1ccc(Cl)cc1C(=O)NNC(=S)NC(=O)c1cc(-c2ccccc2)nc2ccccc12	0.8	0.01
CCSc1nnc(-c2ccccc2NC(C)=O)c(=O)[nH]1	1.5	-1.7
CCCC(=O)Nc1nnc(CCOC)s1	0.03	1.1
O=c1c2ccccc2c(/C=N/c2ncn[nH]2)c(O)n1Cc1ccccc1	0.02	0.09
CCOC(=O)CN1C(=O)C(O)(CC(=O)c2cccc(OC)c2)c2ccccc21 (stereo not given)	1	0.33
CC(c1ccccc1)N1CC(C(=O)Nc2nccs2)CC1=O (stereo not given)	1.1	-0.4
Cc1ccc(C)c(C(=O)Cn2c(NCCO)nc3ccccc32)c1	0.78	-0.35
O=c1[nH]c(=O)n(-c2ccccc2)c2c1C(C(F)(F)F)(C(F)(F)F)N=C(CCC1CCCCC1)N2	0.12	1.4
O=C(CSc1nc(O)cc(=O)n1-c1ccccc1)N1CCCCC1	1.6	-0.03
Cc1ccccc1N(CC(=O)Nc1ccccc1C(=O)O)S(C)(=O)=O	0.58	-0.76
COc1ccccc1NC(=O)CN1CCC(c2nc3ccccc3[nH]2)CC1	1.1	-0.24
CCC(=O)N1CCN=C1SCc1cc(C)ccc1C	1.1	0.4
COc1ccc(OCCOC(=O)CNS(=O)(=O)c2ccc(SC)c([N+](=O)[O-])c2)cc1	1.9	0.67
COc1cccc(N2CCN(C(=O)c3ccc(CS(=O)c4ccc(Cl)cc4)o3)CC2)c1 (stereo not given)	2.4	0.25
COc1ccc(S(=O)(=O)N(CC(=O)NCc2ccco2)c2ccc(F)cc2)cc1	0.53	0.63
COc1ccc(NC(=O)COC(=O)CC2CCCC2)cc1Cl	2.2	0.92
O=C(NC(=S)Nc1c(Cl)ccc2nsnc12)c1ccccc1F	0.83	0.72
O=C(NC1CCN(Cc2cccc([N+](=O)[O-])c2)CC1)c1ccccc1	0.46	-0.71
COCCN1Cc2cccc(C(=O)Nc3ccc(S(=O)(=O)N4CCCCCC4)cc3)c2C1=O	0.11	0.37
CC1=C(C(=O)Nc2ccc(F)c(F)c2)C(c2cccs2)NC(=S)N1 (stereo not given)	0.82	-0.48
CCc1nc(Nc2ccccc2F)c2oc3ccccc3c2n1	0.07	1.1
COC(=O)c1ccc(N2CCc3ccccc32)c([N+](=O)[O-])c1	0.81	-0.04
CC(=O)c1c(-c2ccccc2)c2cc(Cl)ccc2[nH]c1=O	0.72	-1.6
COc1ccc(-c2csc(Nc3ccccn3)n2)cc1OC	2.6	-1.5
Cc1cc(N2CCN(C)CC2)nc2ccc(NC(=S)N3CCN(c4ccccn4)CC3)cc12	0.48	1.7
C=CCNc1nc(-c2ccc3c(c2)OCCO3)cs1	1.1	-0.39

3 compounds already listed, ordered by the number in KCNQ2 enhance baseline, descending:
mol	KCNQ2 enhance baseline
COc1ccc(NC(=O)COC(=O)CC2CCCC2)cc1Cl	0.92
COCCN1Cc2cccc(C(=O)Nc3ccc(S(=O)(=O)N4CCCCCC4)cc3)c2C1=O	0.37
COC(=O)c1ccc(N2CCc3ccccc32)c([N+](=O)[O-])c1	-0.04

Among those listed so far, these have a tert-butyl group:
SMILES	KCNQ2 enhance	KCNQ2 enhance baseline
CC(C)(C)NC(=O)NC(=O)Cn1cc(C(F)(F)F)ccc1=O	0.34	0.14
CC(C)(C)c1cc(OS(C)(=O)=O)ccc1O	0.09	-1.1
CC1=C(C(=O)OC(C)(C)C)C(c2cccs2)NC(=O)N1 (stereo not given)	0.59	0.44

Not all compounds are listed; count on the stated rates, not on these rows.
